Mtb hypoxia rep: Mtb hypoxia fluorescent reporter inhibition. hit rate 0.1% among 300,000. M. tuberculosis hypoxia-regulated fluorescent reporter, fluorescence. fluorescence inhibition, % (test concentration not listed). AID 1159583;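 active means 35 to 45% if threefold the growth effect, above 45% if 1.5-fold the growth effect; inactive means the rest, general growth blockers included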;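 further: wells of about 50 µL received 100 nL stock; 0% = vehicle wells and 100% = reference inhibitor wells; whole bacteria with a GFP reporter of the hypoxia response; strong numbers were not always called active; many hits fall short of the cut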
PrP 5UTR inh: suppresses PrP 5' UTR mRNA reporter expression; cell-based PrP 5' UTR mRNA reporter, plate reader; inhibition, % (concentration not given with the values); hit rate 0.35% among 340,000; AID 488862;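 active means every replicate at 50% or more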;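 further: 0 = median of the neutral control wells; tested in H4 reporter cells; numbers are from one replicate; inactives centre near -14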
BJeLR lethal: kills HRASV12-expressing BJeLR cells. BJeLR (HRASV12) viability, CellTiter-Glo ATP luminescence, 48 h; reference of the scale not given here. inhibition, % (no concentration beside the values). hit rate 0.17% among 300,000;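 active means replicate mean above 50%; inconclusive means above 50% but judged a plate artefact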;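 further: 50 nL library stock added to about 25 µL; numbers are from one replicate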
Sa ugtP lethal: kills S. aureus RN4220 lacking UgtP; S. aureus RN4220 ugtP deletion, OD600 growth, 16 h; some inactives read as strong as hits; growth inhibition, % (test concentration not listed); hit rate 0.54% among 330,000;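 active means z-score under -3 and OD600 up to 0.15 on both plates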;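 further: plate controls were untreated wells for no effect and antibiotic for full effect; wells of about 80 µL received 100 nL stock; the first replicate is given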
Bead autofluor: compound fluorescence in toxin protease inhibitor counterscreen; fluorescence intensity (test concentration not listed); compound autofluorescence counterscreen, microsphere flow cytometry; hits give high values; hit rate 3.1% among 360,000;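 active means at least 3 SD above the mean of all compounds, about 16000 in these data; inconclusive means too few beads counted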;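 further: 100 nL of 1 mM stock went into each well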
Sa RN4220 lethal: kills Staphylococcus aureus RN4220 | S. aureus RN4220 growth, OD600, 16 h | inhibition, % (test concentration not listed) | hit rate 0.33% among 330,000;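 active means z-score of -3 or lower and OD600 up to 0.18 on both plates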;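 further: plate controls were untreated cells for no effect and reference antibiotic for full effect; stock transfer was 100 nL into about 80 µL; one replicate is shown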
Mtb hypoxia rep growth: further read-out of Mtb hypoxia rep, marked with its call; growth inhibition, %; measured here: M. tuberculosis growth (absorbance);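 0% = vehicle and 100% = reference antibiotic; read after six days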
* = called active by the depositor; u = inconclusive; x = not tested or not shown; & = joins results of further samples.

SMILES	Mtb hypoxia rep	Mtb hypoxia rep growth	PrP 5UTR inh	BJeLR lethal	Sa ugtP lethal	Bead autofluor	Sa RN4220 lethal
CC(=O)Nc1ccc(C(=O)COC(=O)c2cc(C)oc2C)c(F)c1	-3	-6	10	x	7	x	-0.9
CCOc1ccccc1OC(=O)CN1C(=O)c2ccccc2C1=O	10	-8	-4	-7	1	x	1.3
COc1cc2ncnc(NCc3ccc(F)cc3)c2cc1OC	15	12	-9	-5	17	3684	5.9
COc1ccc(C(=O)N2CCOC2CNC(=O)C(=O)NCc2ccco2)cc1 (stereo not given)	0	18	-25	-5	1	4274	-0.1
O=C(CCc1ccccc1)OCC(=O)c1ccc([N+](=O)[O-])cc1	14	-3	-28	1	4	2443	8.9
COc1ccc(C(CNC(=O)C(Cc2ccccc2)NC(N)=O)N(C)C)cc1 (stereo not given)	11	5	-9	4	7	3280	1.2
Cc1ccc([C@@H]2[C@@H]3C(=O)N(c4ccccc4)C(=O)[C@@H]3[C@]3(C)C(=O)N(Cc4ccccc4)CC(=O)N23)o1	x	x	-11	4	x	4426	x
COC(=O)Nc1ccc(S(=O)(=O)N2CCC(C(=O)N3CCC(C)CC3)CC2)cc1	1	2	-13	8	5	3246	5.5
CN(C)c1ccc(C=C(c2nnnn2-c2ccccc2)c2nnnn2-c2ccccc2)cc1	8	4	-11	-8	1	2501	11
COC(=O)/C=c1\sc2n(c1=O)C(C)=CC(C)(C)N=2	x	x	-18	-5	x	19740*	x
COC(=O)c1ccc(Cl)c(NC(=O)Cc2ccccc2[N+](=O)[O-])c1	2	6	-4	7	3	8853	4.3
Nc1cc(=O)[nH]c(SCC(=O)Nc2ccc([N+](=O)[O-])cc2)n1	12	8	-19	4	-1	5274	2.3
O=C(CN1CCCCC1)N1CCN(C(=O)CN2CCCCC2)CC1	-6	-4	x	0	-3	x	-1.8
CNC(=S)NN=Cc1c(C)nn(-c2ccccc2)c1Cl	7	13	x	x	0	x	-1.4
CN(C)c1ccc(C=NNC(=O)C(O)(c2ccccc2)c2ccccc2)o1	6	3	x	x	3	x	2.9
CCOc1ccc(CCNC(=O)C2CCCN(S(=O)(=O)N3CCOCC3)C2)cc1OCC (stereo not given)	x	x	-3	-9	-14	6300	0.7
CC(C)(C)CN1C(=O)C(=O)NC[C@H]1Cc1ccc(O)cc1	x	x	-43	-6	x	3602	x
COc1cccc(CN2CCN(C(=O)c3cccs3)CC2)c1OC	14	7	-19	-1	3	3220	2.3
CC(C)CNS(=O)(=O)c1ccc(C(=O)Nc2ccc3c(c2)OCO3)cc1	4	2	-9	1	-3	3559	3.6
CCOC(=O)C1=C(C)OC(N)=C(C(=O)OCC)C1c1ccncc1 (stereo not given)	9	14	-19	5	-2	4869	-0.3
CCc1nc2nc(C)cc(Nc3cccc(C(F)(F)F)c3)n2n1	x	x	-24	-1	5	5269	-4.7
CN(CC(=O)Nc1ccccc1C(F)(F)F)C(=O)CSCc1ccc(Cl)c(Cl)c1	-9	-5	-5	-8	-10	6166	6.3
CCCC(=O)Nc1cc(C(=O)O)ccc1Sc1ccccc1	0	-8	-17	1	-1	4335	3.3
Cc1sc2ncnc(SCC(=O)NC(=O)NCc3ccco3)c2c1C	8	0	-29	0	4	4100	4.1
CC(O)C1NC(=O)C(CCCCN)NC(=O)c2cc([N+](=O)[O-])cc(F)c2NCCCCC(C(N)=O)NC1=O (stereo not given)	9	9	x	x	-16	x	4.8
CCOC(=O)N1CCC(N(CCN(C)C)C(=S)Nc2cccc(Cl)c2)CC1	-4	-11	-17	2	12	4189	0.7
COc1ccc(-n2ccnc2SCC(=O)NO)cc1	9	15	4	0	12	5603	0.5
CCOc1cc(/C=C2/NC(=O)N(CC(=O)Nc3cccc(C)c3)C2=O)ccc1OC	3	2	-3	14	-9	3349	-15
O=C(NC12CC3CC(CC(C3)C1)C2)c1cccc([N+](=O)[O-])c1	0	6	-12	-5	8	4375	5.6
CCOc1ccc(/C=C2\C(=O)c3ccccc3OC2c2ccccc2)cc1 (stereo not given)	11	9	-15	-13	20	3087	3.5
C=CCOc1c(Cl)cc(CNCCC)cc1Cl	6	5	-13	0	0	u	3.2
C#CCNC(=O)C1=CC(c2ccc(C(F)(F)F)cc2)CC(OCCCCO)O1 (stereo not given)	9&9	1&10	x	x	3&0	x	9.4&2.5
O=C(NC1CCCCC1)C(c1ccc(Cl)cc1)N(C(=O)c1ccccn1)c1cccnc1 (stereo not given)	-1	2	x	13	5	x	3.7
Cc1ccc(C=NNC(=O)C[n+]2ccccc2)o1	-5	4	x	x	5	x	3.1
CSc1ncccc1C(=O)NNC(=O)c1ccc(NS(=O)(=O)c2cccs2)cc1	6	-3	-9	0	-4	4169	5.6
O=C(Nc1ccc(N2CCCCC2)c(Cl)c1)c1ccc2c(c1)OCCO2	x	x	-56	10	2	4157	0.9
O=C(NCc1ccccc1)c1cc[n+](Cc2ccccc2)cc1	2	0	-4	0	2	4173	5.7
CC(C)c1ccc(NC(=O)CSc2nc3ccsc3c(=O)n2CCC(=O)O)cc1	-2	8	16	-2	0	6071	2.0
COc1ccc(C(=O)O/N=C(\N)c2ccccc2Cl)cc1OC	5	8	-18	-24	7	3330	-0.7
C=C(C)Cn1c(-c2ccncc2)n[nH]c1=S	5	10	-18	-20	7	3247	0.0
CS(=O)(=O)NCc1ccc(C(=O)NCCOc2ccccc2)cc1	4	11	-74	-7	5	17640*	1.2
CC1CC(C)(C)NC(=S)N1CC(=O)N1CCN(Cc2ccc3c(c2)OCO3)CC1 (stereo not given)	6	6	-11	-2	2	4444	5.3
COc1ccc(-c2c(C)nn3c(N4CCOCC4)cc(C)nc23)cc1OC	11	7	-13	-1	-4	5020	7.5
COC(=O)C1=NN(c2ccc(C)cc2)C2(S1)SC(C(C)=O)=C(C)N2c1ccccc1 (stereo not given)	2	1	-30	-5	6	23648*	1.1
Nc1c(C(=O)O)cnn1-c1ccc([N+](=O)[O-])cc1	6	3	10	3	7	u	4.0
O=c1[nH]cnc2c1nnn2Cc1ccccc1	15	-2	-31	2	17	3844	3.1
O=C(O)CC(=O)Nc1ccccc1	x	x	-12	-7	9	4058	-1.0
O=C(O)CCC(=O)NCc1cn(-c2ccccc2)nc1-c1cccc(Br)c1	8	5	-20	-3	1	10264	5.9
COc1ccc(CCNC(=O)C(C(=O)c2ccc(F)cc2)n2ccccc2=O)cc1OC (stereo not given)	12	4	0	0	6	2608	5.4
CCOC(=O)c1cc(-c2ccncc2)nc2c1c(C)nn2-c1ccccn1	10	9	-4	-8	-13	8358	12

(cont.)
SMILES	Mtb hypoxia rep	Mtb hypoxia rep growth	PrP 5UTR inh	BJeLR lethal	Sa ugtP lethal	Bead autofluor	Sa RN4220 lethal
CCn1cc(C=NNC(=O)c2cc(-c3ccccc3OC)nc3ccccc23)c(C)n1	-9	0	x	x	0	x	-3.6
Cc1cc(NC(=O)COC(=O)CCC(=O)c2ccc(F)cc2)no1	x	x	0	0	0	2682	3.3
COc1cccc(/C=N\NS(=O)(=O)c2ccccc2)c1OC	x	x	-16	-12	x	6451	x
CC1(C)SC2C(NC(=O)C(N)c3ccccc3)C(=O)N2C1C(=O)OC1OC(=O)c2ccccc21 (stereo not given)	22	24	x	x	101*	x	100*
C/C(CC1CC2=C(CC1(C)C)C(C)(C)CCC2)=N\NC(N)=S (stereo not given)	x	x	-11	4	x	8318	x
O=S(=O)(c1ccc(Br)s1)N1CCN(c2ccccc2)CC1	-4	1	-12	-29	16	9198	6.1
CCCc1cc(C(=O)Nc2nccs2)cs1	2	2	-53	-5	7	8349	0.1
CCOC(=O)c1cccc(NC(=O)Nc2cc(OC)ccc2OC)c1	10	8	-6	-5	8	4792	-3.1
CCCCN(Cc1ccccc1)C(=O)C1CCC(=O)N(CCc2ccccn2)C1 (stereo not given)	-14	2	-3	-7	2	u	0.1
CCC(C)NC(=O)Cn1cc(S(=O)(=O)N2CCN(c3ccccc3F)CC2)c2ccccc2c1=O (stereo not given)	5	-3	-1	-2	1	4852	1.0
Cc1ccc(S(=O)(=O)C2(S(=O)(=O)c3ccc(C)cc3)CCCC2)cc1	-82	-17	-11	14	7	6804	2.7
CCOC(=O)CSc1nc2sc3c(c2c(=O)[nH]1)CCCC3	3	5	-17	0	-11	10189	8.9
COc1ccc2nc(NCCCNC(=O)c3cc(OC)c(OC)c(OC)c3)c(C#N)cc2c1	-6	4	-16	0	11	4432	3.2
CC(C)OCCCNC(=O)CNC(=O)c1ccc(Cl)c(Cl)c1	-1	-8	-30	5	-5	4464	4.1
C[C@H](CO)N1C[C@H](C)[C@@H](CN(C)C(=O)Nc2ccc(C(F)(F)F)cc2)Oc2c(NC(=O)Cc3ccccc3)cccc2C1=O	4	15	-13	x	-3	3014	-9.7
CCN1CCN(c2ccc([N+](=O)[O-])cc2C#N)CC1	8	2	-21	-12	10	4461	3.3
Brc1ccc(N=C(c2ccccc2)c2ccncc2)cc1	6	0	-23	3	9	2574	0.7
COc1ccccc1N1CCN(C(=O)COc2cc(C)ccc2C)CC1	8	21	-7	-3	2	2128	1.5
CCCCCn1c(N2CCN(c3cccc(Cl)c3)CC2)nc2c1c(=O)[nH]c(=O)n2C	8	1	5	1	1	3201	2.5
CC(C)(C)c1ccc(OCc2ccc(C(=O)NN)o2)cc1	11	3	-79	2	14	3492	11

Seven records picked at random from those above, as already listed:
SMILES	Mtb hypoxia rep	Mtb hypoxia rep growth	PrP 5UTR inh	BJeLR lethal	Sa ugtP lethal	Bead autofluor	Sa RN4220 lethal
CC(C)OCCCNC(=O)CNC(=O)c1ccc(Cl)c(Cl)c1	-1	-8	-30	5	-5	4464	4.1
CC(C)(C)c1ccc(OCc2ccc(C(=O)NN)o2)cc1	11	3	-79	2	14	3492	11
CCCCCn1c(N2CCN(c3cccc(Cl)c3)CC2)nc2c1c(=O)[nH]c(=O)n2C	8	1	5	1	1	3201	2.5
CCN1CCN(c2ccc([N+](=O)[O-])cc2C#N)CC1	8	2	-21	-12	10	4461	3.3
Cc1ccc(S(=O)(=O)C2(S(=O)(=O)c3ccc(C)cc3)CCCC2)cc1	-82	-17	-11	14	7	6804	2.7
CCOC(=O)CSc1nc2sc3c(c2c(=O)[nH]1)CCCC3	3	5	-17	0	-11	10189	8.9
COc1ccccc1N1CCN(C(=O)COc2cc(C)ccc2C)CC1	8	21	-7	-3	2	2128	1.5

More compounds
SMILES	Mtb hypoxia rep	Mtb hypoxia rep growth	PrP 5UTR inh	BJeLR lethal	Sa ugtP lethal	Bead autofluor	Sa RN4220 lethal
Cc1ccc(-c2nc3ccccc3[nH]2)cc1NC(=O)c1ccco1	-1	16	-18	-4	-5	2966	5.6
Cn1ccc(C(=O)OCC(=O)c2ccccc2)n1	-1	4	-6	3	-4	4441	2.0
CCC(=O)N1c2ccc(S(=O)(=O)CCC(=O)N3CCN(c4ccccc4F)CC3)cc2CC1C (stereo not given)	4	-2	-4	3	6	6186	5.3
COc1ccc(S(=O)(=O)N2CCC(C(=O)Nc3ccccc3N3CCCCC3)CC2)cc1OC	3	12	-3	3	-4	6231	-4.0
COc1ccc(N=Cc2c(O)n(-c3cccc(C)n3)c(=O)c3ccccc23)c(OC)c1	-4	1	-5	-1	3	3217	2.4
Cc1ccc(CNC(=O)C2=NNC(=O)CC2)cc1	-4	-4	-22	-1	4	10225	-0.1
CC12COC3(C(=O)Nc4ccc(Cl)cc4)CC1CCC32C (stereo not given)	6	7	2	-10	11	2593	3.3
Cc1nc2n(n1)C(O)c1cc([N+](=O)[O-])ccc1S2 (stereo not given)	4	8	x	2	5	x	5.8
O=S(=O)(c1ccc(Cl)cc1)N1CCN(Cc2ccc(O)c3ncccc23)CC1	1	7	23	-1	12	4388	-2.6
O=C(CSc1ccccc1)NC(Cc1ccccc1)C(=O)O (stereo not given)	3	19	x	x	0	x	-0.1
CCN(C(=O)COC(=O)c1ccccc1OCc1ccc(Cl)cc1)C1CCS(=O)(=O)C1 (stereo not given)	18	6	-25	x	6	3756	3.4
CC1(C)CN(c2ccc(-c3ccnc4ncnn34)cc2)C1=O	9	2	-38	-8	7	4470	1.3
COc1ccc2c(c1)CC/C2=N\NC(=O)c1ccccc1	x	x	-31	20	x	2161	x
CCCCNC(=O)N1CCN(C(c2ccccc2)c2ccccc2)CC1	14	9	-11	1	27	3568	-1.4
COc1ccccc1NC(=O)Cn1ncc2c1-c1ccccc1OC2	2	0	-4	-6	3	5244	-12

Screening data as filed in PubChem BioAssay.
